Bioassay records: PubChem BioAssay, National Center for Advancing Translational Sciences (NCATS)
HPGD inh – inhibitors of human 15-hydroxyprostaglandin dehydrogenase (HPGD); purified HPGD, NADH fluorescence kinetic, PGE2 substrate; Potency, µM, without a hit: at the top dose activity change, negative = inhibition, most hits filed as inhibitors; hit rate 4.3% among 150,000; active = well fitted inhibition curve with a large enough effect (not every such curve was filed as active); inconclusive = small, poorly fitted or top-dose-only effect, or another doubt; inactive = no such curve, though single readings can be large or run the other way;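 also: top concentration of the series not given in the record; plate controls included wells without enzyme; inactives centre near -10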
Target sequence (P15428 whole entry, looked up): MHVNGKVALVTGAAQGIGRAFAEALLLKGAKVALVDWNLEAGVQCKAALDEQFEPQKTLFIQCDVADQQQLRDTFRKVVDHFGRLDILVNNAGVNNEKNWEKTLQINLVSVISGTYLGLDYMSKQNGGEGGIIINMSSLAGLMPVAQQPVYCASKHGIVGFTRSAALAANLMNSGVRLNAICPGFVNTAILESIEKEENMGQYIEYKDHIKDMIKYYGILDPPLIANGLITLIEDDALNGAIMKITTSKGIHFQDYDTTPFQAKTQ
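20 nM HPGD preincubated 15 min at room temperature with compound in 50 mM Tris-HCl pH 8, 0.01% Tween 20. Started with 1 mM NAD+ and 30 uM prostaglandin E2; NADH fluorescence (360/450 nm) read 5 times over 30-s intervals, last minus first.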
An asterisk follows results filed as active; ? = inconclusive. % is scaled to controls: 0 for no effect and ±100 for the full control effect; potency is read from the fitted curve at half-maximal effect. Some of the compounds tested; the hit share may differ from the screen's.

SMILES	HPGD inh
C[C@@H](C[C@H](N)C(=O)O)C(=O)O	0%
Cc1cc(Nc2ccccc2)nn1C(=O)c1ccc(Cl)cc1	-10%
CCC(C(N)=O)c1ccccc1 (stereo not drawn)	-10%
Cc1nc2cc(C(=O)O)ccc2s1	-8%
Cc1ccc(CSC2=NCCN2C(=O)C2CC2)cc1	1%
C(=N\n1cnnc1)/c1ccc(-c2ccccc2)cc1	-16%
Nc1nonc1C(=O)NCCNC(=O)c1ccccc1F	4%
N/C(=N\OC(=O)Cc1cccs1)c1ccc([N+](=O)[O-])cc1	-12%
O=C1c2cccc(OCC(=O)N3CCCc4ccccc43)c2CCN1Cc1ccc(F)cc1	-13%
CN=c1scc(-c2cccs2)n1/N=C/c1ccccc1O	?
C=C(C)CC(NCc1ccco1)c1ccc(OC)cc1 (stereo not drawn)	-9%
CC(C)(C)C1=Nn2c(nnc2C2CCCCC2)SC1	-22%
CCO/C=C1/C(=O)N(C)C(=O)c2cc(OC)ccc21	-19%
NS(=O)(=O)O	-14%
COC(=O)c1sccc1NC(=O)CSc1cc(Cl)ccc1Cl	-22%
COc1cc(OC)c(OC)cc1CNC1CCCCCC1	-9%
Cc1c(C(C)O)nnn1-c1nonc1N (stereo not drawn)	-1%
O=C(Nc1c(F)cc(F)cc1Br)c1cc(-c2ccc(O)cc2)on1	?
O=C(Nc1ccccc1)Nc1cc(OCC(F)(F)F)cc(OCC(F)(F)F)c1	-15%
N#CC(C(=O)NCCc1ccccc1)c1nc2ccccc2nc1N1CCOCC1 (stereo not drawn)	-4%
NNc1nc2c(F)cccc2s1	-13%
Cc1ccc2oc(=O)c3cnn(CC(=O)N4CCc5ccccc5C4)c3c2c1	-12%
COC(=O)/C=C1/N/C(=N\c2nc(C)cc(C)n2)N(c2ccc(C)c(C)c2)C1=O	-3%
COc1ccc(OC)c(C(=O)N2CCC(C(=O)c3ccc(F)cc3)CC2)c1	-3%
Clc1ccc2c(c1)C(N1CCNCC1)Cc1ccccc1S2 (stereo not drawn)	22%
Cc1cc(=O)oc(C)c1C(=O)OC(C(=O)c1ccccc1)c1ccccc1 (stereo not drawn)	-10%
CC(C)OCCCNC(=O)c1cc(Sc2ccc(F)cc2)nc2ccccc12	-13%
O=C(c1sc2ccccc2c1Cl)N(Cc1ccco1)C1CCS(=O)(=O)C1 (stereo not drawn)	-9%
Cc1cc(C)n(-c2nnc(C)n2/N=C/c2ccco2)n1	-5%
COCCN(CCOC)c1nc(C)nc2c1nc(-c1ccccc1)n2CCCN(C)C	?
CN(N=Nc1ccc([N+](=O)[O-])cc1)c1ccccc1	-7%
COc1ccc(OC)c(C2C(C#N)=C(N)Oc3cc(N)ccc32)c1 (stereo not drawn)	-7%
Cc1c(C(=O)NCCc2ccccc2)oc2ccc(S(=O)(=O)N3CCOCC3)cc12	-10%
COc1ccccc1OCc1ccc(C(=O)N2CCN(C(=O)c3ccco3)CC2)cc1	-17%
NC(=O)CCN(Cc1ccccc1)S(=O)(=O)c1ccccc1	-3%
COC(=O)N1CCC2(CCN(C(=O)Nc3ccc(OC)cc3)CC2)CC1	-3%
COc1ccc(NC(=O)CCN2C(=O)C3CC=C(Cl)CC3C2=O)cc1 (stereo not drawn)	0%
CCCCNC(=O)C1CC(=O)N(c2ccc(OC)cc2)C1c1ccc(OC)cc1 (stereo not drawn)	0%
CN(C)c1ccc(/C=C(\Cl)c2nc3ccccc3s2)cc1	-21%
Cc1cc2nc(CCN3CCOCC3)n(S(=O)(=O)c3ccc(C(C)(C)C)cc3)c2cc1C	-11%
Cc1ccc(CNS(=O)(=O)N(C)C)cc1	-2%
CCOC(=O)c1c(NC(=O)c2cc(-c3ccc(O)cc3)on2)sc(C(C)=O)c1C	18µM*
O=C(/C=C/c1ccc(O)c(O)c1)NC(=O)c1ccccc1O	?
CCOC(=O)c1cnc(-n2cc(C)cn2)nc1Nc1ccccc1OC	-3%
Cc1nc(N2CCN(c3ccccc3)CC2)[nH]c(=O)c1Cc1ccccc1	-6%
COc1ccc(/C=N/Nc2ncnc3sc4c(c23)CCCC4)cc1O	-15%
Cn1cccc1Cc1nnc(SCC(=O)NCCc2ccccc2)n1-c1ccc(F)cc1	-1%
CCCCC1=CC2=CC(=O)C(C)(OC(=O)CC)C(=O)C2=CN1Cc1ccco1 (stereo not drawn)	1%
Cc1cccc(CC(=O)Nc2cc(C)c3c(=O)oc4ccccc4c3n2)c1	-21%
CCOc1ccc2nc(NCCCO)[nH]c2c1	-7%
Cc1nnc(N(Cc2ccccc2)C(=O)c2cnccn2)s1	1%
CC1CCCC(NC(=O)CC2Nc3ccccc3NC2=O)C1C (stereo not drawn)	-10%
C/C(=N\NC(=O)Cc1cc(=O)[nH][nH]1)c1cccc([N+](=O)[O-])c1	-16%
O=C(/C=C/c1ccc2c(c1)OCO2)c1cccs1	?
CCC(=O)N1CCc2cc(OC)c(OC)cc2C1COc1ccc(C(=O)OC)cc1 (stereo not drawn)	-21%
O=C(Nc1nc2ccc(F)cc2s1)C1CCCO1 (stereo not drawn)	-17%
c1coc(-c2nc3nc4ccccc4nc3n2CC2CCCO2)c1 (stereo not drawn)	?
CCOC(=O)c1cnc(SCC(=O)Nc2cc(OC)cc(OC)c2)nc1N	1%
CCOC(=O)C1CCCN(C(=O)Cn2nc(Cc3cccnc3)c3ccccc3c2=O)C1 (stereo not drawn)	-6%
COc1ccc(N(Cc2ccccc2)S(=O)(=O)c2cccc(C(=O)NC3=NCCS3)c2)cc1	-8%

New compounds follow.
SMILES	HPGD inh
O=C(/C=C/c1ccc(Cl)cc1)N(Cc1ccccc1)C1CCS(=O)(=O)C1 (stereo not drawn)	-18%
Cc1ccc(C(=O)CSC2=NC(N)=C(C#N)C3(CCCCC3)C2C(N)=O)cc1 (stereo not drawn)	-3%
O=C1CC(C(F)(F)C(F)(F)C(F)(F)C(F)(F)F)=Nc2ccccc2N1	-5%
CC(CN1CCN(C)CC1)OC(=O)c1ccc(Cl)cc1 (stereo not drawn)	-3%
C/C(=N\NC(=O)CN(c1ccccc1Br)S(C)(=O)=O)c1ccc2c(c1)OCCO2	-8%
Cc1nc2c3cnn(-c4ccc(C)c(C)c4)c3ncn2n1	?
CC(C)C(NC(=O)C(c1ccccc1)c1ccccc1)c1nc2ccccc2[nH]1 (stereo not drawn)	-2%
CCn1c(SCC(=O)NC2CCCCC2)nnc1-c1cc2cccc(OC)c2o1	20µM*
Cc1c2c(n3c(nc4ccccc43)c1C#N)N(c1ccccc1)CC2	-23%
CCCCCOC(=O)c1ccc(NC(=O)c2ccco2)cc1	-25%
C=C(c1cccc2ccccc12)P(=O)(O)O	-3%
Cc1cc2oc(=O)c3c(c2cc1OCc1nn[nH]n1)CCCC3	?
COC(=O)c1c(-c2ccc(C)cc2)csc1NC(=O)Cc1ccc(OC)c(OC)c1	?
CN(C)CC[C@@H](C(=O)C(C)(C)C)c1ccccn1	-2%
Cc1c(Br)c([N+](=O)[O-])nn1CC(=O)Nc1ccc(Cc2ccncc2)cc1	-18%
Cc1cccc(NC(=O)CSc2nnc(CNC(=O)c3ccc(S(=O)(=O)N(C)C)cc3)n2-c2ccccc2)c1	5%
C=CCN1C(=O)CN=C1Nc1cc(C)ccc1C	-5%
Cc1ccc(NC(=O)CN2CCc3ccccc3C2)cc1	-7%
CN1CCN(S(=O)(=O)c2cccc(C(=O)NC3CCCc4ccccc43)c2)CC1 (stereo not drawn)	-11%
Cc1ccc(C(=O)OCCc2c(C)[nH]n(-c3ccccc3)c2=O)cc1	-11%
CC1CCC(C(C)C)[C@H](O)C1 (stereo partly drawn)	-11%
Cc1cccc(C)c1NC(=O)CN(C)c1ccc(C(F)(F)F)cn1	-21%
Cn1c(=O)c2c(nc(CN3CCN(C(=O)c4ccco4)CC3)n2Cc2ccc(F)cc2)n(C)c1=O	-12%
COc1cccc(-c2nc(-c3ccc(NC(=O)Cc4ccccc4OC)cc3)no2)c1	-24%
CC1=CN2C(=N)/C(=C/c3ccc(Sc4ccc(C)cc4)o3)C(=O)N=C2S1	?
CCN1CCc2c(sc(NC(=O)c3ccc(S(=O)(=O)N4CCOCC4)cc3)c2C(=O)OC)C1	-5%
CCC(=O)N1CCc2cc(S(=O)(=O)CCC(=O)N3CCc4ccccc4C3)ccc21	-3%
CCOC(=O)c1ccc(NC(=O)N2CC(C)OC(C)C2)cc1 (stereo not drawn)	-13%
CCc1c(O)nc(SCC(=O)Nc2ccccc2OC)[nH]c1=O	-19%
Cc1ccccc1OCc1nc2ccccc2c(=O)n1/N=C/c1c[nH]c2ccccc12	-3%

Rewritten with the structure last: part of the list above.
HPGD inh	SMILES
-14%	NS(=O)(=O)O
-22%	COC(=O)c1sccc1NC(=O)CSc1cc(Cl)ccc1Cl
-9%	COc1cc(OC)c(OC)cc1CNC1CCCCCC1
-1%	Cc1c(C(C)O)nnn1-c1nonc1N (stereo not drawn)
?	O=C(Nc1c(F)cc(F)cc1Br)c1cc(-c2ccc(O)cc2)on1
-15%	O=C(Nc1ccccc1)Nc1cc(OCC(F)(F)F)cc(OCC(F)(F)F)c1
-4%	N#CC(C(=O)NCCc1ccccc1)c1nc2ccccc2nc1N1CCOCC1 (stereo not drawn)
-13%	NNc1nc2c(F)cccc2s1
-12%	Cc1ccc2oc(=O)c3cnn(CC(=O)N4CCc5ccccc5C4)c3c2c1
-3%	COC(=O)/C=C1/N/C(=N\c2nc(C)cc(C)n2)N(c2ccc(C)c(C)c2)C1=O
-3%	COc1ccc(OC)c(C(=O)N2CCC(C(=O)c3ccc(F)cc3)CC2)c1
22%	Clc1ccc2c(c1)C(N1CCNCC1)Cc1ccccc1S2 (stereo not drawn)
-10%	Cc1cc(=O)oc(C)c1C(=O)OC(C(=O)c1ccccc1)c1ccccc1 (stereo not drawn)
-13%	CC(C)OCCCNC(=O)c1cc(Sc2ccc(F)cc2)nc2ccccc12
-9%	O=C(c1sc2ccccc2c1Cl)N(Cc1ccco1)C1CCS(=O)(=O)C1 (stereo not drawn)
-5%	Cc1cc(C)n(-c2nnc(C)n2/N=C/c2ccco2)n1
?	COCCN(CCOC)c1nc(C)nc2c1nc(-c1ccccc1)n2CCCN(C)C
-7%	CN(N=Nc1ccc([N+](=O)[O-])cc1)c1ccccc1
-7%	COc1ccc(OC)c(C2C(C#N)=C(N)Oc3cc(N)ccc32)c1 (stereo not drawn)
-10%	Cc1c(C(=O)NCCc2ccccc2)oc2ccc(S(=O)(=O)N3CCOCC3)cc12
-17%	COc1ccccc1OCc1ccc(C(=O)N2CCN(C(=O)c3ccco3)CC2)cc1

Continuation:
SMILES	HPGD inh
COc1ccc(S(=O)(=O)NC(CC(=O)NCc2ccc3c(c2)OCO3)c2ccco2)cc1 (stereo not drawn)	-11%
C=C(C)c1cccc(C(C)(C)NC(=O)NCc2ccc(OC)c(OC)c2)c1	-5%
COc1ccc(-c2nc(CS(=O)CC(=O)NCCCN3CC(C)CC(C)C3)c(C)o2)cc1OC (stereo not drawn)	-14%
Cc1ccc(N2CN=C(c3ccccc3)NC2=S)cc1	-21%
CC1CC(C)CN(C(=O)c2ccc3c(c2)N(Cc2ccccc2)CCS3)C1 (stereo not drawn)	?
COC1(OC)N=C(N)C2(C#N)C(c3ccccc3)NC(C)=CC12C#N (stereo not drawn)	?
COc1ccc(OC)c(N/C(C)=C/C(=O)c2ccc(C)o2)c1	-11%
COc1ccc(-c2nc3ccccc3c(=O)n2CCOc2cccc(C)c2C)cc1	?
C=CCn1c(COc2ccccc2-c2ccccc2)nnc1SCC(=O)NC(=O)NCc1ccco1	-4%
Cn1cccc1C(=O)N1CCC[C@@]2(CCN(c3cccc(-c4ccccc4)c3)C2)C1	?
CN=C(Nc1cc(Cl)ccc1Cl)SC1CC(=O)N(c2ccc(C(=O)OC)cc2)C1=O (stereo not drawn)	-10%
Cc1cc(C)n(C(C)n2nc(C)cc2C)n1	-8%
COC(=O)c1ccc(-c2ccco2)n1Cc1ccccc1Cl	?
CO[C@@H]1CC[C@@]2(C)[C@@H](CC[C@@]3(C)[C@H]2CC=C2[C@H]4CC(C)(C)[C@H](O)[C@@H](OC(C)=O)[C@]4(CO)[C@H](O)C[C@]23C)[C@@]1(C)CO (tested in a mixture with another compound)	-5%
Cc1ccc(C)c(NC(=O)c2oc(=O)c3ccccc3c2-c2ccccc2)c1	-12%
N#Cc1nc(-c2ccc(OCc3ccccc3)cc2)oc1NCc1cccnc1	?
COc1ccc(C(=O)Nc2cc(C(F)(F)F)ccc2Cl)cc1OC	-1%
Cc1cc2c(ncn2C)c(NS(=O)(=O)c2ccccc2Cl)c1C	-2%
c1ccc2nc3c(nc2c1)c1ccccc1n3CCN1CCOCC1	-5%
CCN=C1SC(CC(=O)Nc2ccccc2OCC)C(=O)N1CC (stereo not drawn)	-7%
N#Cc1ccc(C(=O)Nc2ccc(S(=O)(=O)NC3=NCCCCC3)cc2)cc1	-1%
CC(=O)Nc1cccc2c1[n+]([O-])c(C)c(C)[n+]2[O-]	-16%
Cc1cccc(CSc2nnc(-c3ccco3)n2C)c1	-14%
Fc1ccccc1CN1CCCCCCC1	-7%
Cc1nnc(SCC(=O)Nc2ccc(N3CCOCC3)cc2)n1-c1ccccc1	5%
Cn1c(=O)c2c(nc(SCc3ccccn3)n2C)n(C)c1=O	-4%
COC(=O)N/N=C/c1cn(CC(C)COc2ccccc2)c2ccccc12 (stereo not drawn)	-15%
CN1CC(=O)NC1=NC(=O)c1ccc(Cl)c(S(=O)(=O)N2CCCCCC2)c1	-26%
Cc1ccc(-n2nnc3c(=O)n(CC(=O)N4CCOCC4)cnc32)cc1	-7%
CCOC(=O)C1=C(c2ccccc2)OC(N)=C(C#N)C1c1ccco1 (stereo not drawn)	-17%
CCC(C)NC(=O)C1CCN(c2nc(OC)nc(OC)n2)CC1 (stereo not drawn)	-9%
